High-throughput results as filed in PubChem BioAssay.
GLA inh pH 4.5 – alpha-galactosidase A (human) inhibition, pH 4.5. purified enzyme, 4-MU-alpha-Gal fluorescence, pH 4.5. activity change, negative = inhibition, % at 105 µM. AID 1467. 230,000 tested, under 10 active; inconclusive = small, poorly fitted or top-dose-only inhibition, or a rising curve; inactive = flat fitted curve, though single readings scatter; no compound was filed as active;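 further: 0% = full activity with enzyme and -100% = basal without enzyme; dose as in the result columns while the protocol names 77 µM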
Rango-impB inh – Rango-importin beta binding inhibition. 340,000 compounds, 0.031% hits. AID 540263. Q14974. Potency, µM (doses to about 92.2 µM), for the others: at the top dose inhibition of complex formation. Rango CFP/YFP FRET sensor + importin beta, 45 min; active = rising FRET ratio curve, often small or poorly fitted; inconclusive = mostly compound fluorescence or quenching in the first reads; inactive = flat curves in all reads;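 further: potency means the concentration at half of the fitted maximal effect; 0% = DMSO wells and 100% = buffer wells lacking importin beta; nearly all actives have a fitted effect of over 15% in size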
Target sequence (Q14974 whole entry, looked up): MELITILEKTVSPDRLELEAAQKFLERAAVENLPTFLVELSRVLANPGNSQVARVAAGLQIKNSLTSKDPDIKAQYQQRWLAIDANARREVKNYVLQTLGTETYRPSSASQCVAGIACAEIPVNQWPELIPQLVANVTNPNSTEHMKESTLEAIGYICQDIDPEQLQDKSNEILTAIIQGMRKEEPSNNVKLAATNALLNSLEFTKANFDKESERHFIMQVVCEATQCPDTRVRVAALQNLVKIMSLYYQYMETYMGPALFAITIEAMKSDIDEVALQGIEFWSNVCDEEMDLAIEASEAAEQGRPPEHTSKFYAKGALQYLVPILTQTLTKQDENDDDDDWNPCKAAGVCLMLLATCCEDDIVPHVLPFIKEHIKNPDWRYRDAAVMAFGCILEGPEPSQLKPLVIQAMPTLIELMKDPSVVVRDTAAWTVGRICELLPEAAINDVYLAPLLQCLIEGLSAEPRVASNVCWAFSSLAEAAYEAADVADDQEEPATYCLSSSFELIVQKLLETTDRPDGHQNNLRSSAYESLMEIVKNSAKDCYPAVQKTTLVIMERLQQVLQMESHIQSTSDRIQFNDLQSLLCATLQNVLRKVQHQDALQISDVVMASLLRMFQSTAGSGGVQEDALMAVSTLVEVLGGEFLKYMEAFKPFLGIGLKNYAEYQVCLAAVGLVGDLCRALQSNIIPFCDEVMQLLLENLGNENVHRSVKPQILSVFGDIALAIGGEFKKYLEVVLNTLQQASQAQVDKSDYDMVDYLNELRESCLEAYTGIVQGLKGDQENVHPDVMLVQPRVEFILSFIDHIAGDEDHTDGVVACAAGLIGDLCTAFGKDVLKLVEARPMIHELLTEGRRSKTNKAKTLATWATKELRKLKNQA
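FRET biosensor (snurportin 1 IBB flanked by EYFP and cerulean), 50 nM, with compound 5 min, then 0.125 microM importin beta in PBS, 1 mM DTT, 0.02% Tween-20, 0.1% BSA. CFP/YFP ratio read after 45 min at room temperature; pre-read flags interference.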
miR-21 reporter – raises the signal of a miR-21 reporter; HeLa miR-21 FLuc reporter, luciferase, 48 h; 340,000 tested, under 10 active; Potency, µM (highest dose often 38.3 µM), inactives show at the highest dose reporter change, positive = more light; AID 2288; active = well fitted rising curve with a large enough effect; inconclusive = small, poorly fitted or top-dose-only effect; inactive = no such curve, though single readings can be large or run the other way;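 further: % of control where 0% means no effect; miR-21 action dims this reporter so a rising signal means less miR-21 action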
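HeLa cells endogenously expressing miR-21, stably carrying CMV-driven firefly luciferase with a downstream miR-21 binding site, 2000 cells/well. Titrations up to approximately 40 uM, 48 hours; luciferase luminescence read.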
Rango dissoc inh – prevents RanGTP from dissociating the Rango-importin beta complex | Biochemical FRET Rango-importin beta, RanGTP-induced dissociation | 340,000 compounds, 0.071% hits | Potency, µM (doses to about 46.1 µM), for inactives: at the top dose activity change, negative = inhibition | O95149+P62826 | AID 540253; active means falling FRET ratio curve, often poorly fitted, with flat reads before Ran was added; inconclusive means other falling curves, or compound fluorescence or quenching; inactive means flat or rising ratio curve;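 further: potency means the concentration at half of the fitted maximal effect; % of control where 0% means no effect; nearly all actives have a fitted effect of over 45% in size; -100% = wells without RanGTP and RCC1; the record marks most hits as doubtful in a second field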
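Recombinant Rango FRET biosensor (EYFP–snurportin 1 IBB–cerulean CFP10) at 0.1 uM premixed with 0.25 uM importin beta in PBS, 1 mM DTT, 0.02% Tween-20, 0.1% BSA. Compound added 5 min; RanGTP-RCC1 (0.6 uM Ran, 2 mM GTP, 0.2 uM RCC1) then triggers release, read at 45 min.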
* = called active by the depositor; ? = inconclusive; · = not tested or not shown. This is a subset; the hit share may differ from the screen's.

1: CN(Cc1ccccc1)C(=O)c1cccc(N2C(=O)NC3CC2(C)Oc2ccccc23)c1 (stereo not given)
2: CCc1ccc(CNCc2cccs2)cc1
3: COc1ccc(C(=O)NC2CCCc3c2cnn3-c2ccc(C)c(C)c2)c(OC)c1OC (stereo not given)
4: Cn1c(=O)c(-c2cc(=O)[nH][nH]2)c(O)c2ccccc21
5: COc1ccc(CCNS(=O)(=O)c2cccc(F)c2)cc1OC

entry no. | 1 | 2 | 3 | 4 | 5
GLA inh pH 4.5 | -0.2 | -3.1 | · | -6.8 | -4.1
Rango-impB inh | 0.3% | -0.8% | 6.0% | 0.1% | -0.1%
miR-21 reporter | 0.5% | -26.3% | 7.7% | -0.6% | -0.2%
Rango dissoc inh | 35.4% | 5.7% | 9.4% | 4.5% | -2.3%

6: COC(=O)Oc1nsnc1N1CCOCC1
7: CCc1cccc(OCCCCNCCOC)c1
8: Cc1ccc(NC(=O)C2=CC(c3ccc(C)cc3)=NS(=O)(=O)N2C)cc1
9: NNC(=O)c1nc[nH]c1C(=O)Nc1ccccn1
10: S=c1[nH]nc(-c2cc(-c3ccccc3)n[nH]2)n1/N=C/c1c2ccccc2cc2ccccc12

entry no. | 6 | 7 | 8 | 9 | 10
GLA inh pH 4.5 | 9.8 | -1.2 | · | -1.6 | 0.9
Rango-impB inh | 1.6% | -2.5% | 5.2% | -1.5% | ?
miR-21 reporter | -2.0% | -6.0% | 16.2% | 2.2% | -11.1%
Rango dissoc inh | -3.8% | 3.4% | 1.2% | 2.2% | ?

11: Cn1c(=O)c2c(ncn2CC(=O)Nc2nc3ccc(F)cc3s2)n(C)c1=O
12: O=S(=O)(c1cccc2ccccc12)N1CCSC1
13: CCCCOc1cc(NCc2ccccc2)c2ncn(C(C)C)c2c1
14: O=C(Nc1ccc(C2CC2(Cl)Cl)cc1)c1cccc([N+](=O)[O-])c1 (stereo not given)
15: Cc1ccc(C)c(NC(=O)CSc2nnc([C@@H](N)Cc3ccccc3)o2)c1

entry no. | 11 | 12 | 13 | 14 | 15
GLA inh pH 4.5 | 4.0 | 9.0 | · | · | -7.6
Rango-impB inh | -1.0% | -5.9% | -2.4% | 2.0% | -2.4%
miR-21 reporter | -15.9% | -5.8% | · | -0.4% | -0.5%
Rango dissoc inh | 0.2% | 0.5% | 0.5% | 11.7% | 0.5%

16: CC1(C)Cc2nc3sc4c(SCC(=O)NC(c5ccccc5)c5ccccc5)ncnc4c3cc2CO1
17: O=C(CN1C(=O)COc2ccccc21)N(Cc1ccc2c(c1)OCO2)CC1CCCO1 (stereo not given)
18: CC(=O)c1cccc(S(=O)(=O)Nc2cccc(S(=O)(=O)NC3=NCCC3)c2)c1
19: CSc1nc(NCCN(C)C)c2sc3nc(-c4ccco4)c4c(c3c2n1)CCC4
20: Cc1ccccc1C(=O)N1CCC(C(=O)NC(C)c2ccc(-n3ccnc3)cc2)CC1 (stereo not given)

entry no. | 16 | 17 | 18 | 19 | 20
GLA inh pH 4.5 | 10.9 | 7.0 | 5.5 | · | ·
Rango-impB inh | 0.7% | 0.4% | -1.7% | 0.0% | 4.5%
miR-21 reporter | -4.4% | -5.9% | -2.6% | · | 5.9%
Rango dissoc inh | 0.6% | -10.3% | 0.7% | 1.0% | 3.1%

21: COc1cc(C(=O)OCC(=O)Nc2ccc(S(=O)(=O)NC3=NCCCCC3)cc2)cc(OC)c1OC
22: FC(F)(F)c1cc(-c2ccccc2)nc2nc(N3CCOCC3)sc12
23: COc1ccc(C(NC=O)c2cc(OC)c(OC)cc2Br)cc1OC (stereo not given)
24: O=C1CC(C(=O)O)S/C(=N\NC(=O)c2ccccc2)N1 (stereo not given)
25: C=CCn1c(SCc2ccccc2)nc(O)cc1=O

entry no. | 21 | 22 | 23 | 24 | 25
GLA inh pH 4.5 | · | -1.4 | 6.2 | 3.1 | -0.1
Rango-impB inh | -3.3% | -0.5% | -2.1% | -1.4% | -0.6%
miR-21 reporter | · | -0.6% | -0.7% | -5.6% | 1.8%
Rango dissoc inh | 0.2% | -2.8% | 12.3% | -4.2% | 3.1%

26: COc1cccc(NC(=O)c2ccc(-c3ccccc3[N+](=O)[O-])o2)c1
27: O=C(CCS(=O)(=O)c1ccc(F)cc1)Nc1ccc(N2CCN(Cc3ccccc3)CC2)cc1
28: COc1ccc(/C=N/NC(=O)Cn2cnc3ccccc3c2=O)cc1OC
29: CCN(CC)S(=O)(=O)c1ccc(N2CCOCC2)c(NC(=O)c2cccc3c(=O)c(C)c(-c4ccccc4)oc23)c1
30: CCOc1ccccc1NC(=O)CCC(=O)Nc1nnc(C2CCCCC2)s1

entry no. | 26 | 27 | 28 | 29 | 30
GLA inh pH 4.5 | 1.5 | · | 0.4 | · | ·
Rango-impB inh | 0.7% | -0.2% | -0.3% | 3.4% | -1.5%
miR-21 reporter | -28.0% | · | -8.2% | · | -3.6%
Rango dissoc inh | 16.4% | -9.9% | 1.4% | 7.9% | -24.4%

31: Cc1ccc(S(=O)(=O)Nc2nc(-c3ccccc3)cs2)cc1
32: Cc1ccccc1C(=O)NNC(=O)c1cc(S(=O)(=O)N2CCOCC2)ccc1C
33: COc1ccc(C2CC(c3cccs3)n3nc(N)nc3N2)cc1 (stereo not given)
34: Cc1cc(=O)n(Cc2ccccc2)c2c(C)cccc12
35: CSc1nnc(NC(=O)c2nc(S(=O)(=O)Cc3cccc(C)c3)ncc2Cl)s1

entry no. | 31 | 32 | 33 | 34 | 35
GLA inh pH 4.5 | · | · | -15.0 | · | ·
Rango-impB inh | 4.8% | 1.6% | ? | 9.0% | 2.1%
miR-21 reporter | -12.0% | · | -22.0% | -3.5% | ?
Rango dissoc inh | 4.1% | 6.6% | -26.9% | 11.3% | 4.6%

36: O=C1NC(=O)N(C2CCCCC2)CC1Br (stereo not given)
37: O=C(Nc1ccc(S(=O)(=O)N2CCCCC2)cc1)c1cccnc1Cl
38: COc1ccc(C(=O)NCC(=O)N/N=C/c2cn[nH]c2-c2ccccc2)cc1
39: O=C(Nc1ccn(CCCNCc2ccccc2)c(=O)n1)OCc1ccccc1
40: Cc1ccc(-c2nnn(CC(=O)N(c3ccc(F)cc3)C(C(=O)NC(C)(C)C)c3ccco3)n2)o1 (stereo not given)

entry no. | 36 | 37 | 38 | 39 | 40
GLA inh pH 4.5 | · | · | 0.0 | · | 2.0
Rango-impB inh | 0.1% | 4.4% | 3.1% | 0.5% | 0.1%
miR-21 reporter | · | · | 3.1% | · | -1.8%
Rango dissoc inh | 9.6% | 26.7% | 10.1% | -7.5% | 29.8%

Structural class, those above containing bromine
23: COc1ccc(C(NC=O)c2cc(OC)c(OC)cc2Br)cc1OC (stereo not given)
36: O=C1NC(=O)N(C2CCCCC2)CC1Br (stereo not given)

entry no. | 23 | 36
GLA inh pH 4.5 | 6.2 | ·
Rango-impB inh | -2.1% | 0.1%
miR-21 reporter | -0.7% | ·
Rango dissoc inh | 12.3% | 9.6%

Continuation:
41: NC(=O)Nc1ccccc1C(=O)N1CCC(O)(c2ccc(Cl)cc2)CC1
42: Cc1ccc(-c2nc(SCC(=O)c3c(N)n(C)c(=O)n(C)c3=O)n[nH]2)cc1
43: C/C=C(\C)C(=O)NCCN1C2=NC[C@H](Cc3ccccc3)N2C[C@@H]1Cc1ccc(OC)cc1
44: CC(=O)N1CCC(N(C(=O)Nc2ccc(Cl)cc2)C(C)C)CC1
45: O=C(CC1C(=O)NCCN1C(=O)Nc1ccc(F)cc1)Nc1ccc(F)cc1 (stereo not given)

entry no. | 41 | 42 | 43 | 44 | 45
GLA inh pH 4.5 | 9.2 | 7.1 | · | 3.2 | -1.5
Rango-impB inh | 3.1% | 1.3% | 0.4% | 1.0% | 6.4%
miR-21 reporter | -8.5% | -1.4% | · | -21.8% | -0.3%
Rango dissoc inh | 7.7% | 12.5% | -9.4% | -0.3% | -4.2%

46: CC1CCCCC12NC(=O)N(CC(=O)NC(=O)NCc1ccco1)C2=O (stereo not given)
47: CCCCN(C(=O)CCC(=O)Nc1cc(C)on1)C(C(=O)NC1CCCC1)c1cccc(OC)c1 (stereo not given)
48: O=C(Cc1ccccc1)NCCCN1CCN(CCCNC(=O)Cc2ccccc2)CC1
49: Cc1[nH]c2ccccc2c1C(=O)COc1ccccc1
50: O=S(=O)(NCCNc1ncc(C(F)(F)F)cc1Cl)C(F)(F)F

entry no. | 46 | 47 | 48 | 49 | 50
GLA inh pH 4.5 | 5.9 | · | -0.8 | 2.9 | 3.1
Rango-impB inh | -2.7% | -2.8% | -0.5% | 4.6% | 3.1%
miR-21 reporter | 0.3% | -2.0% | -0.7% | -50.9% | 16.8%
Rango dissoc inh | 2.5% | 17.3% | -0.5% | 0.7% | 0.3%

51: O=C(Nc1ccc(Cl)c(S(=O)(=O)N2CCOCC2)c1)c1cc(-c2ccccn2)nc2ccccc12
52: Cc1sc2nc(COC(=O)c3ccc(N4CCCC(C)C4)c([N+](=O)[O-])c3)[nH]c(=O)c2c1C (stereo not given)
53: Cc1ccc2c(c1)N(CC(=O)N1CCCC1)C(=O)CO2
54: Cc1cc(-c2nnc(CCC(=O)NC(Cc3ccccc3)c3ccccc3)o2)no1 (stereo not given)
55: CCc1ccccc1-n1c(SCC(=O)NC)nnc1-c1cccnc1

entry no. | 51 | 52 | 53 | 54 | 55
GLA inh pH 4.5 | -0.9 | 0.8 | · | 1.1 | -1.4
Rango-impB inh | -2.1% | 0.9% | 1.1% | -1.8% | -2.0%
miR-21 reporter | -0.7% | -8.0% | 2.9% | -1.0% | 1.5%
Rango dissoc inh | 0.8% | 28.7% | 4.6% | 3.4% | 8.9%

56: O=S(=O)(NCc1ccc(Cl)cc1)NCc1ccccc1F
57: Cc1cc(F)ccc1S(=O)(=O)Nc1ccc(C(=O)N2CCCCCC2)cc1
58: CC(=O)c1c(C)nn(CCC(=O)O)c1C
59: Nc1ccc2ccccc2c1[N+](=O)[O-]
60: CC(=O)N1CC(C)Oc2ccc(S(=O)(=O)NC(CC(=O)O)c3ccccc3)cc21 (stereo not given)

entry no. | 56 | 57 | 58 | 59 | 60
GLA inh pH 4.5 | -5.9 | · | 3.1 | · | ·
Rango-impB inh | 1.2% | -4.4% | 1.1% | -2.4% | 3.3%
miR-21 reporter | 0.9% | · | 0.6% | · | 0.6%
Rango dissoc inh | 11.1% | -2.9% | -10.2% | 13.8% | -5.5%

61: CC(=O)Nc1ccc(-c2nnc(SCC(=O)n3c4c(c5ccccc53)CCCC4)n2C)cc1
62: Cc1noc(C)c1NC(=O)Nc1cccc2c1O[C@H](CN(C)S(=O)(=O)c1c(C)noc1C)[C@@H](C)CN([C@H](C)CO)C2=O
63: CC(C)c1nnc(NC(=O)CCC(=O)N2CCN(c3ccccn3)CC2)s1
64: O=C(NCC1CCCO1)c1ccc(Cl)c(S(=O)(=O)N2CCOCC2)c1 (stereo not given)
65: CCc1ccc(C(=O)Nc2cccnc2Oc2ccc(Cl)cc2)cc1

entry no. | 61 | 62 | 63 | 64 | 65
GLA inh pH 4.5 | -0.2 | · | 5.5 | · | -9.8
Rango-impB inh | -4.2% | -0.4% | -4.1% | 0.3% | -0.4%
miR-21 reporter | 1.7% | · | -5.5% | -0.2% | -16.4%
Rango dissoc inh | -4.2% | 1.7% | 1.7% | -0.3% | 9.3%

66: COc1ccc(C2=NN(C(=O)CCC(=O)O)C(c3ccccc3OC)C2)cc1 (stereo not given)
67: C=CCn1c(N2CCN(c3ccc(OC)cc3)CC2)nc2c1c(=O)[nH]c(=O)n2C
68: CCCCNC(=O)CSc1nc(Cc2ccccc2)nc2ccccc12
69: Cc1cc(C(=O)NCC(C)(C)N2CCOCC2)c(C)o1
70: Cc1c(Cl)cccc1NC(=O)Cc1cccs1
71: Cc1ccccc1NC(=O)/C=C/c1cccs1
72: COc1ccc(/C=C/C(=O)N(C)Cc2cccs2)cc1S(=O)(=O)N1CCOCC1

entry no. | 66 | 67 | 68 | 69 | 70 | 71 | 72
GLA inh pH 4.5 | · | 5.2 | · | · | · | -3.6 | ?
Rango-impB inh | -1.1% | -1.6% | 5.8% | 0.1% | 1.0% | -1.3% | -0.6%
miR-21 reporter | -6.3% | 0.1% | -7.4% | · | -8.0% | -58.5% | -3.3%
Rango dissoc inh | -16.7% | 7.9% | 8.4% | -7.3% | -10.7% | 15.7% | -10.3%
